# Screens from PubChem BioAssay.
# AF4-AF9 inh = inhibitors of AF4 peptide binding to AF9, primary screen, biochemical, AlphaScreen, biotin-AF4 peptide, FLAG-AF9, single point; inhibition, % at 10 µM; actives 0.47% (n = 350,000);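 active = every replicate reaching a set inhibition limit, whatever the replicate mean, cut at about 25% in these data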;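 also: 0% = plate neutral control median and 100% = total signal loss; the record names both 10 and 1 µM as test concentration; the first replicate is given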
# Target sequence (P42568 whole entry, looked up): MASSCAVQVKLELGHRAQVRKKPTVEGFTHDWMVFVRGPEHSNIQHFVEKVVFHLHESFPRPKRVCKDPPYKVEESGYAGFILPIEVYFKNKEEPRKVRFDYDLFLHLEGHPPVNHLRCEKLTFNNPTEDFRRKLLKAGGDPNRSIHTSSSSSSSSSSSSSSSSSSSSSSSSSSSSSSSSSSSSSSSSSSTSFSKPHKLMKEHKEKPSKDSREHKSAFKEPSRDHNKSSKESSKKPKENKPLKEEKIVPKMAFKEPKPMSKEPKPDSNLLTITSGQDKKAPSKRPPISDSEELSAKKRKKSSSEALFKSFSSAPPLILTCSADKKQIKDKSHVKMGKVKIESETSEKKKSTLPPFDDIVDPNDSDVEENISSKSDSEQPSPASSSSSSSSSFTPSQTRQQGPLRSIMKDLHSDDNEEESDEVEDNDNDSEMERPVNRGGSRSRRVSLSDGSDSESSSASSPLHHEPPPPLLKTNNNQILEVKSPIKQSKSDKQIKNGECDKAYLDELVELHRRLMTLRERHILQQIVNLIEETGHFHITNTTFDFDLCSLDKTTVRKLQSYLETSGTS
# FGF22 binding = binders of human FGF22 protein, primary screen, FGF22 synaptogenesis inhibitor project, biophysical, thermal shift, single point. Fibroblast growth factor 22 (Homo sapiens), Q9HCT0. recombinant FGF22 thermal shift, SYPRO orange fluorescence; percent of sucrose octasulfate shift, DMSO zero. calls only at 9.99 µM. actives 1.5% (n = 340,000). AID 651658, 2012;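 active = melting point raised past a set limit in the mean and every replicate; three in four hits are not shown here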
# Target sequence (Q9HCT0 whole entry, looked up): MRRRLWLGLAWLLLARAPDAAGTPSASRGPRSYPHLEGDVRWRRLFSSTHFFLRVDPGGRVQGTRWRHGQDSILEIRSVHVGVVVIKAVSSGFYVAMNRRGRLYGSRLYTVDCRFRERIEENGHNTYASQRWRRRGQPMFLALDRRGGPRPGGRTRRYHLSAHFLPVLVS
# rRNA inh HTS = reduced GFP signal of wild-type E. coli, primary screen, bacterial rRNA inhibitor project, GFP/RFP fluorescence, OD600, single point | E. coli WT GFP vs humanized-ribosome RFP mutants, 24 h; stronger effect = lower value; DMSO median 0, no signal -100 | GFP signal change (wild-type ribosome), % (test concentration not listed) | actives 1.6% (n = 350,000) | AID 720706, 2013;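 active = significant combined selectivity score with lowered wild-type GFP, culture density cut under 30%, mutant RFP and density less affected; inactive = any of these conditions unmet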; also: one replicate is shown; some compounds called inactive have numbers as strong as hits
# rRNA inh HTS OD600 = recorded beside rRNA inh HTS, whose call it bears; OD600 change, %; measured here: OD600 growth;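 optical density of the mix in the first replicate; 0 = DMSO median and -100 = no signal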
# rRNA inh HTS RFP = second read-out of rRNA inh HTS, no call of its own (marks repeat the call); RFP signal change, %; measured here: RFP humanized mutant strains;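 first replicate; 0 = DMSO median and -100 = no signal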
# The depositor's hits bear a star; i = inactive; & = joins results of further samples.
nr	SMILES	FGF22 binding	rRNA inh HTS OD600	rRNA inh HTS	rRNA inh HTS RFP	AF4-AF9 inh
1	C[C@@H]1CN([C@@H](C)CO)C(=O)c2c(c3ccccc3n2C)-c2ccccc2CO[C@H]1CN(C)Cc1cccnc1	i	-6	-3	2.8	0.3
2	COc1ccc(NC(=O)Nc2ccc3c(c2)C(=O)N([C@H](C)CO)C[C@H](C)[C@@H](CN(C)S(=O)(=O)c2cn(C)cn2)O3)cc1	i	-2	-1	0.1	-1.9
3	O=C(c1ccccc1F)N1C[C@@H]2[C@H](c3ccccc31)[C@H](CO)N2C(=O)C1CCCC1	i	7	1	-1.7	-36
4	CCCCOc1ccc(S(=O)(=O)NC(=O)C2(C)CCN2C(=O)Cc2ccccc2Cl)cc1 (centres undefined)	i	-13	-10	1.0	-4.7
5	COc1ccc(NC(=O)N(C)C[C@@H]2OCCCC[C@H](C)Oc3ccc(NC(=O)Nc4ccc(F)cc4)cc3C(=O)N([C@@H](C)CO)C[C@@H]2C)cc1	i	5	-3	-0.4	-1.2
6	O=C(c1cccc(F)c1)N1CCCCN2[C@@H](CO)[C@@H](c3ccc(-c4ccncc4)cc3)[C@@H]2C1	i	16	-1	-0.6	0.8
7	COc1cccc(C#Cc2cnc3c(c2)C(=O)N([C@H](C)CO)C[C@@H](C)[C@@H](CN(C)C(=O)C2CCC2)O3)c1	i	3	1	0.9	-0.5
8	C[C@@H]1CN([C@H](C)CO)C(=O)c2cc(C#CCc3ccccc3)cnc2O[C@H]1CN(C)C(=O)C1CC1	i	7	7	-1.6	-7.7
9	CNC[C@@H]1Oc2ccc(NC(=O)C3CCCCC3)cc2CC(=O)N([C@@H](C)CO)C[C@H]1C	i	0	5	-2.2	-9.4
10	COc1cccc(S(=O)(=O)N[C@H]2CC[C@@H](CCN)O[C@H]2CO)c1	i	1	2	-0.3	0.5
11	C[C@H](CO)N1C[C@H](C)[C@H](CN(C)CC2CC2)OCCCC[C@H](C)Oc2ccc(NS(=O)(=O)c3cn(C)cn3)cc2C1=O	i	3	4	-3.4	-5.1
12	COc1ccc(C(=O)N2CCC2(C)C(=O)O)cc1F (centres undefined)	i	13	8	-1.0	0.0
13	C[C@H](O)C#Cc1cnc2c(c1)C(=O)N([C@H](C)CO)C[C@@H](C)[C@@H](CN(C)Cc1ccc(-c3ccccc3)cc1)O2	i	2&-5	-3&-1	3.9&-0.5	4.3&0.2&-0.2
14	C[C@@H]1CCCCO[C@@H](CN(C)C(=O)NC2CCCCC2)[C@H](C)CN([C@H](C)CO)C(=O)c2cc(NC(=O)C3CCCCC3)ccc2O1	i	6	-4	0.0	-2.0
15	C[C@@H]1CCCCO[C@@H](CN(C)S(C)(=O)=O)[C@H](C)CN([C@@H](C)CO)C(=O)c2cc(NC(=O)NC3CCCCC3)ccc2O1	i	-2	-2	0.3	-3.0

# Taken from above.
# rRNA inh HTS RFP, COc1ccc(C(=O)N2CCC2(C)C(=O)O)cc1F (centres undefined) : -1.0
# rRNA inh HTS OD600, O=C(c1cccc(F)c1)N1CCCCN2[C@@H](CO)[C@@H](c3ccc(-c4ccncc4)cc3)[C@@H]2C1 : 16
# rRNA inh HTS OD600, C[C@@H]1CN([C@@H](C)CO)C(=O)c2c(c3ccccc3n2C)-c2ccccc2CO[C@H]1CN(C)Cc1cccnc1 : -6

# (further entries)
nr	SMILES	FGF22 binding	rRNA inh HTS OD600	rRNA inh HTS	rRNA inh HTS RFP	AF4-AF9 inh
16	O=C(NC1CCCCC1)C(c1ccncc1)n1c(=O)c(-c2ccccc2)nc2ccccc21 (centres undefined)	i	-11	-7	1.3	6.9
17	Cc1nc(CN2CCCCC2)c(O)c(=O)[nH]1	i	-3	2	-1.0	-2.8
18	Cc1noc(C)c1NC(=O)Nc1ccc2c(c1)C(=O)N([C@@H](C)CO)C[C@@H](C)[C@H](CN(C)CC1CCCCC1)OCCCC[C@@H](C)O2	i	3	1	-1.4	-2.0
19	COc1ccc(CN(C)C[C@@H]2Oc3ccc(NC(=O)Nc4ccc(OC)cc4)cc3CC(=O)N([C@H](C)CO)C[C@H]2C)cc1	i	-4	-1	0.9	4.1
20	COc1ccccc1-c1cn(CC[C@@H]2CC[C@H](NC(=O)NC(C)C)[C@@H](CO)O2)nn1	i	3	-2	1.1	-2.1
21	CNC[C@@H]1Oc2cc(C#CCOC)ccc2S(=O)(=O)N([C@@H](C)CO)C[C@@H]1C	i	2	3	0.5	-1.4
22	COc1ccc2c3c(n(C)c2c1)[C@@H](CO)N(C(=O)C1CCC1)CC31CCN(Cc2cccc(F)c2)CC1	i	-30	1	30	29*
23	C[C@@H]1CN([C@@H](C)CO)C(=O)Cc2cc(NC(=O)CCC(F)(F)F)ccc2O[C@@H]1CN(C)Cc1ccc(C(F)(F)F)cc1	i	4	-1	0.0	-1.7
24	O=C(C[C@H]1CC[C@H](NS(=O)(=O)c2ccc(F)cc2)[C@@H](CO)O1)NC1CCC1	i	-4	-3	3.6	-2.4
25	CNC[C@@H]1Oc2ccc(NC(=O)Nc3ccc(F)cc3)cc2C(=O)N([C@H](C)CO)C[C@@H]1C	i	11	0	2.8	2.7
26	COc1ccc2c3c(n(C)c2c1)[C@H](CO)N(S(C)(=O)=O)CC31CCN(CC2CC2)CC1	i	9	2	-0.3	-2.8
27	O=C(Nc1ccc2c(c1)[C@H]1C[C@@H](CC(=O)N3CCc4ccccc4C3)O[C@H](CO)[C@H]1O2)NC1CCCC1	i	-35	-9	0.2	0.5
28	COCC(=O)Nc1ccc2c(c1)C(=O)N(C)C[C@H](OC)[C@H](C)CN(C(=O)COC)[C@H](C)CO2	i	1	2	0.2	2.6
29	COc1ccc(C)cc1-n1nnnc1SCc1nc(N)nc(N(C)C)n1	i	-7	-3	0.4	-4.0
30	CN(C)CC#Cc1ccc([C@@H]2[C@@H](CO)N3CCCCN(C(=O)C4CCC4)C[C@@H]23)cc1	i	9	3	1.7	-1.2

# AF4-AF9 inh, entries above that show a hit
No.	smiles	rRNA inh HTS OD600	rRNA inh HTS	rRNA inh HTS RFP	AF4-AF9 inh
22	COc1ccc2c3c(n(C)c2c1)[C@@H](CO)N(C(=O)C1CCC1)CC31CCN(Cc2cccc(F)c2)CC1	-30	1	30	29*

# Continuation.
nr	SMILES	FGF22 binding	rRNA inh HTS OD600	rRNA inh HTS	rRNA inh HTS RFP	AF4-AF9 inh
31	COCC(=O)Nc1ccc2c(c1)OC[C@H](C)N(C(=O)c1cccnc1)C[C@@H](C)[C@H](OC)CN(C)C2=O	i	2	1	2.8	1.0
32	COCCNC(=O)C1CCCN(C(=O)c2cc(C)n(C(C)(C)C)n2)CC1 (centres undefined)	i	-5	-2	-4.1	-2.0
33	Cc1noc(C)c1NC(=O)N(C)C[C@@H]1OCCCC[C@H](C)Oc2ccc(NS(=O)(=O)c3cccs3)cc2C(=O)N([C@@H](C)CO)C[C@@H]1C	i	0	1	-1.8	-0.9
34	C[C@@H]1CN([C@@H](C)CO)C(=O)c2cc(NS(=O)(=O)c3ccccc3)ccc2O[C@H]1CN(C)Cc1ccc(C(=O)O)cc1	i	0	-1	-3.0	-4.5
35	CCCC#Cc1cnc2c(c1)C(=O)N([C@@H](C)CO)C[C@H](C)[C@@H](CN(C)C(=O)Cc1ccncc1)O2	i	4	-3	0.8	-0.8
36	COCC(=O)Nc1ccc2c(c1)C(=O)N(C)C[C@@H](OC)[C@@H](C)CN(Cc1cccnc1)[C@H](C)CO2	i	-5	0	-0.7	2.2
37	C[C@@H]1CN([C@H](C)CO)S(=O)(=O)c2ccc(-c3ccncc3)cc2O[C@H]1CN(C)C(=O)c1ccc2c(c1)OCO2	i	-18	-7	-4.2	4.1
38	CCCCCCc1nc2nc(Cl)c(Cl)nc2[nH]1	i	13	7	1.1	-5.4
39	COc1ccc(NC(=O)N(C)C[C@H]2OCCCC[C@H](C)Oc3ccc(NC(=O)Nc4ccccc4)cc3C(=O)N([C@H](C)CO)C[C@@H]2C)cc1	i	3	-2	0.9	-0.8
40	COC(=O)C[C@H]1C[C@H]2c3cc(NC(=O)CC4CC4)ccc3O[C@H]2[C@@H](CO)O1	i	6	4	-1.9	-2.3
41	O=C(C[C@H]1CC[C@@H]2[C@H](COC[C@H](O)CN2S(=O)(=O)c2ccccc2)O1)Nc1ccc(-c2ccccc2)cc1	i	-67	-47	-1.0	-0.7
42	O=C(N[C@@H]1CC[C@H](CCNS(=O)(=O)c2ccc(F)cc2)O[C@H]1CO)C1CCOCC1	i	2	3	-0.4	-0.5
43	CCOC(=O)[C@]12CCCC=C1N(CCC1=CCCCC1)C(=O)[C@H](CC(=O)NCC13CC4CC(CC(C4)C1)C3)C2	i	19	35	2.0	0.9
44	C[C@@H]1CN([C@H](C)CO)S(=O)(=O)c2ccc(-c3cccnc3)cc2O[C@H]1CN(C)Cc1ccncc1	i	-7	-1	-3.0	19
45	COc1ccc(C(=O)C(=O)N2CCC(c3ccccc3)CC2)cn1	i	-13	-14	-0.9	0.4
46	C[C@H]1CN([C@@H](C)CO)C(=O)Cc2cc(NC(=O)CCCCCC(=O)Nc3ccccc3N)ccc2O[C@H]1CN(C)C(=O)Nc1ccccc1	i	3	2	-1.2	-2.8
47	C[C@H](CO)N1C[C@H](C)[C@H](CN(C)Cc2ccccc2)Oc2ccc(NC(=O)Nc3cccc4ccccc34)cc2C1=O	i	-6	1	3.7	2.9
48	CCCNC(=O)N1C[C@H](O)COC[C@@H]2O[C@H](CC(=O)N3CCCCC3)CC[C@H]21	i	-1	-1	-0.9	-3.5
49	Cc1ccc(S(=O)(=O)N[C@@H]2CC[C@H](CCn3cc(C4CC4)nn3)O[C@@H]2CO)cc1	i	-2	2	-2.5	2.2
50	C[C@@H]1CN([C@H](C)CO)S(=O)(=O)c2ccc(C#Cc3ccncc3)cc2O[C@@H]1CN(C)C	i	3	7	-3.4	-2.8
51	COc1ccc(S(=O)(=O)Nc2ccc3c(c2)C(=O)N([C@@H](C)CO)C[C@H](C)[C@H](CN(C)C(=O)NC(C)C)OCCCC[C@H](C)O3)cc1	i	-5	-3	0.8	-6.8
52	CN1C(=O)c2cc(NC(=O)Nc3cccc(Cl)c3)ccc2OC[C@H]2O[C@H](CC(=O)NCCc3ccncc3)CC[C@H]21	i	-21	-5	4.7	3.1
53	CC1(C(=O)NS(=O)(=O)c2cccc(Cl)c2)CCN1C(=O)C1CC1 (centres undefined)	i	9	8	0.4	-1.1
54	COc1cc(/C=C/C(=O)OCC(=O)N2CC(C)OC(C)C2)ccc1OCC#N (centres undefined)	i	9	5	4.3	-6.0
55	COc1ccc(CN(C)C[C@H]2Oc3ccc(NS(=O)(=O)c4ccc(C)cc4)cc3CC(=O)N([C@H](C)CO)C[C@H]2C)cc1	i	-10	-3	1.7	0.5
56	C[C@@H]1CCCCO[C@H](CN(C)S(=O)(=O)c2cccs2)[C@H](C)CN([C@@H](C)CO)C(=O)c2cc(NS(=O)(=O)c3cccs3)ccc2O1	i	-7	-5	-0.8	3.4
57	CO[C@@H]1CN(C)C(=O)c2cc(NC(=O)C3CC3)ccc2OC[C@H](C)N(Cc2ccncc2)C[C@@H]1C	i	-3	-3	-1.4	-0.4
58	O=C(C[C@H]1C=C[C@H](NC(=O)CCN2CCCCC2)[C@@H](CO)O1)NCc1ccc(Cl)c(Cl)c1	i	1	1	-0.2	-1.0
59	CCS(=O)(=O)Nc1ccc2c(c1)C(=O)N(C)C[C@H](OC)[C@H](C)CN(C)[C@H](C)CO2	i	3	0	-1.2	-1.7
60	CS(=O)(=O)N1CC2(C1)[C@H](c1ccccc1)[C@H](CO)N2C(=O)C1CCC1	i	5	4	-0.8	-2.7
61	CO[C@H]1CN(C)C(=O)c2ccc(NC(=O)c3ccccc3)cc2OC[C@@H](C)N(C(=O)CN(C)C)C[C@@H]1C	i	5	1	-0.3	-4.5
62	CO[C@H]1CN(C)C(=O)c2ccc(NS(C)(=O)=O)cc2OC[C@@H](C)N(C(=O)NC(C)C)C[C@@H]1C	i	-3	-1	0.0	-2.2
63	COc1ccc(-c2nc3ccc(C)cn3c2Cc2ccccc2)cc1OC	i	-12	-8	-1.4	5.0
64	c1cc2c(c(CC3CO3)c1CC1CO1)OCCOCCOCCOCCO2 (centres undefined)	i	6	1	-4.7	0.0
65	CN(C)C(=O)C[C@H]1CC[C@H]2[C@@H](COC[C@@H](O)CN2C(=O)c2ccncc2)O1	i	16	7	1.6	-0.8
66	COc1ccccc1C(=O)Nc1ccc2c(c1)C(=O)N(C)[C@@H]1CC[C@H](CC(=O)NCCc3ccncc3)O[C@H]1CO2	i	4	5	-1.8	-6.6

# Limited to rRNA inh HTS, AF4-AF9 inh and FGF22 binding, for some of the entries so far:
cpd | SMILES | rRNA inh HTS | AF4-AF9 inh | FGF22 binding
62 | CO[C@H]1CN(C)C(=O)c2ccc(NS(C)(=O)=O)cc2OC[C@@H](C)N(C(=O)NC(C)C)C[C@@H]1C | -1 | -2.2 | i
64 | c1cc2c(c(CC3CO3)c1CC1CO1)OCCOCCOCCOCCO2 (centres undefined) | 1 | 0.0 | i
66 | COc1ccccc1C(=O)Nc1ccc2c(c1)C(=O)N(C)[C@@H]1CC[C@H](CC(=O)NCCc3ccncc3)O[C@H]1CO2 | 5 | -6.6 | i

# Some of the compounds tested, so the mix of outcomes need not match the whole.
